Sa helicase inh: S. aureus DNA helicase inhibition. inhibition, %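 (tested at about 80 µM)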. 120,000 compounds, 0.05% hits. purified S. aureus helicase, fluorescence unwinding assay; about half of the hits fall short of the stated cut;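 active means both duplicates at 50% or more, or one of them with a favoured structure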;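 further: 0% = mean of negative control wells and 100% = mean of positive control wells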
MgrA-DNA mod: S. aureus MgrA-DNA binding modulation; inhibition, %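 (about 10 µg/mL by stock and volumes)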; 84,000 compounds, 0.13% hits; fluorescence polarization;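 active means above 50% in either of two replicates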;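 further: 0% = protein plus DNA without compound and 100% = DNA alone without protein; higher means less MgrA bound to DNA so lower polarization; one replicate is shown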
Starred values were filed as active, the others as inactive; . = no result given. These rows are one share of the data. The share of hits here may be higher or lower than overall.

Screens in order: Sa helicase inh, MgrA-DNA mod
#1 CCCn1c(CSCc2ccccc2F)nc2cc(S(=O)(=O)N3CCOCC3)ccc21
  2.0, .
#2 CCCN(Cc1nnc(-c2ccccc2Cl)o1)C(=O)c1cccc(S(=O)(=O)N(C)C)c1
  -8.0, .
#3 Cc1ccc(S(=O)(=O)NCC(O)Cn2c3ccccc3c3ccccc32)cc1 (stereo not drawn)
  -1.0, -0.1
#4 N#Cc1cccc(NC(=O)c2cc3c(s2)-c2ccccc2OC3)c1
  5.0, .
#5 CC1(C)C(=O)C2(C(=O)O)CCC1C2 (stereo not drawn)
  6.0, .
#6 Cn1c(=O)[nH]c(=O)c2[nH]c(Cc3ccccc3)nc21
  -2.0, 0.9
#7 NC(=O)CN1C(=O)C(O)(CC(=O)/C=C\c2ccccc2)c2ccccc21 (stereo not drawn)
  -8.0, 3.6
#8 CCOC(=O)C1CCN(C(=O)CN(c2cc(Cl)ccc2OC)S(C)(=O)=O)CC1
  7.0, -2.4
#9 FC(F)(F)c1ccc(-c2csc(-c3ccc(-c4csnn4)cc3)n2)cc1
  ., -0.3
#10 N#Cc1c(N)nc(Sc2ccc(Cl)cc2)c(C#N)c1-c1ccco1
  ., -1.7
#11 COc1cc(/C=C(/Sc2nnc(-c3ccc(F)cc3)o2)C(=O)O)ccc1OC(F)F
  -14.0, .
#12 Cc1cc(-c2nc(-c3ccc(C(F)(F)F)cc3)no2)no1
  9.0, .
#13 COC(=O)c1cccc(S(=O)(=O)N2CCCCC2)c1
  6.0, 0.2
#14 CC(C)CN(CC(C)C)C(=O)COc1ccc(C(C)(C)C)cc1
  3.0, -0.6
#15 Cc1cc(=O)[nH]c2c1c(C)nn2C(C)(C)C
  ., -1.3
#16 COc1cccc2c1NC(C)(C)C=C2C
  13.0, .
#17 CCN1CCN(Cc2ccc(NC(=O)c3cn(-c4cccc(OC)c4)c(=O)c4ccccc34)cc2)CC1
  -11.0, .
#18 Cc1ccc(Cl)cc1N1CCN(C(=O)CCN2C(=S)NC(C)(C)CC2C)CC1 (stereo not drawn)
  -4.0, .
#19 CC(C)(C)c1ccc(C(=O)Nc2ccc(NC(=O)c3ccccc3F)cc2)cc1
  5.0, 1.7
#20 O=c1cc(CSc2cccc3cccnc23)c2ccc(O)cc2o1
  -24.0, 1.4
#21 CCN1CCN(Cc2ccc3cccnc3c2O)CC1
  6.0, .
#22 CC1(C)OC(=O)N(CCCC(=O)O)C1(C)O (stereo not drawn)
  6.0, -0.7
#23 CCC12CN3CC(CC)(CN(C1)C3c1c(C)[nH]c3ccccc13)C2=O (stereo not drawn)
  8.0, -1.6
#24 COc1cc2c(cc1OC)C(C)N(C(=O)c1c(-c3ccccc3)noc1C)CC2 (stereo not drawn)
  ., -0.9
#25 CCN(CC)c1ccc(NC(=O)COc2ccc(C)cc2C)c(C)c1
  21.0, 1.8
#26 O=C(CC1(O)C(=O)c2ccccc2C1=O)c1ccccc1
  28.0, -2.1
#27 CCN(c1ccc2oc3ccccc3c2c1)S(=O)(=O)c1ccc(C#N)cc1
  -8.0, .
#28 O=C(O)CSCc1ccc(F)cc1
  12.0, -3.8
#29 O=C1C2C3C=CC(C3)C2C(=O)N1Cc1cccnc1 (stereo not drawn)
  -14.0, 0.1
#30 COC(=O)C1=C(C)N(C2CCCCC2)C(=O)/C1=C\c1ccc(N(C)C)cc1
  -33.0, .
#31 CCC(=O)N1CCc2cc(Br)cc(S(=O)(=O)CCC(=O)N3CCc4ccccc43)c21
  5.0, .
#32 O=C(CCC(=O)n1ncc2ccccc21)N1CCCCC1
  3.0, 0.3
#33 CCOC(=O)C(C(=O)Nc1ccccc1)C1CCCCC1 (stereo not drawn)
  ., 1.0
#34 COc1ccc(CCn2c(=O)c3cccnc3n(Cc3ccc(C#N)cc3)c2=O)cc1OC
  9.0, .
#35 O=S(=O)(NCc1ccccc1)c1ccc(F)cc1
  4.0, .
#36 Cc1ccc(C(=O)COC(=O)C2C3CC4OC(=O)C2C4C3)cc1 (stereo not drawn)
  14.0, -3.9
#37 CCN(CC)CCCNC(=O)c1nn2c(C(F)(F)F)cc(-c3cccs3)nc2c1Br
  ., 0.5
#38 COc1ccc2nc(NCc3ccccc3)[nH]c2c1
  -4.0, -1.5
#39 CC1Cc2ccccc2N1C(=O)CSc1nccc(=O)[nH]1 (stereo not drawn)
  10.0, -0.3
#40 COc1ccccc1/C=C1\SC(=O)N(c2ccccc2)C1=O
  -8.0, .
#41 CCOC(=O)c1cc(-c2ccc(C=C3C(=O)N(C)C(=O)N(C)C3=O)o2)ccc1Cl
  ., 1.0
#42 O=c1[nH]cc(F)c(=O)[nH]1
  ., 0.5
#43 COc1ccc(-c2noc(CN(C(=O)CN3C(=O)c4ccccc4C3=O)C(C)C)n2)cc1
  3.0, 1.0
#44 Cc1nc2sc(C(=O)c3ccc(Br)cc3)c(N)c2c(C)c1C
  ., 0.1
#45 Cc1c(Br)sc2sc(-c3ccnc(SCC(=O)NC(C)C)n3)c(C)c12
  ., 0.2
#46 O=C(CSc1nnc(CNc2ccc(F)cc2)o1)N1c2ccccc2Sc2ccccc21
  1.0, 4.6
#47 CCOC(=O)N1CCN(C(c2ccccn2)c2cc(Cl)c3cccnc3c2O)CC1 (stereo not drawn)
  -3.0, .
#48 On1c(-c2cccc(C(F)(F)F)c2)nc2ncccc21
  ., 0.0
#49 CC(C)(C)NS(=O)(=O)c1sc(Br)cc1Br
  ., -4.6
#50 N#Cc1ccccc1NC(=O)CSc1nc(-c2ccccc2)c(-c2ccccc2)o1
  7.0, .
#51 CCOc1ccc(OCCOc2ccc(CN3CCN(CC(=O)N(C)C)CC3)cc2OCC)cc1
  -11.0, .
#52 Cc1ccc(-c2nc(=S)c3c(n2CCCO)CCCC3)cc1
  -7.0, .
#53 CSc1ccc(/C=C/C(=O)OCC(N)=O)cc1
  18.0, .
#54 CSc1ncc(C(=O)NCCc2ccccc2)c(C)n1
  -12.0, 3.2
#55 O=C1Nc2ccccc2SC1N1CCCCC1 (stereo not drawn)
  -14.0, .
#56 CCOC(=O)c1sc2ccc(S(=O)(=O)N3CCOCC3)cc2c1N
  0.0, -2.1
#57 CC(C)CN(CC(C)C)S(=O)(=O)c1ccc(C(=O)Nc2nnc(-c3ccccn3)o2)cc1
  4.0, .
#58 COc1ccccc1OCCn1c(=N)n(C)c2ccccc21
  29.0, .
#59 CC(C)C(=O)N(C)C1(c2ccccc2Cl)CCCCC1=O (stereo not drawn)
  2.0, 1.0
#60 O=C(CSc1ncnc2ccccc12)NCCc1ccccc1
  1.0, .

Whole records from above:
O=C1Nc2ccccc2SC1N1CCCCC1 (stereo not drawn) in the list: Sa helicase inh = -14.0; MgrA-DNA mod = .
CSc1ncc(C(=O)NCCc2ccccc2)c(C)n1 in the list: Sa helicase inh = -12.0; MgrA-DNA mod = 3.2
CCOc1ccc(OCCOc2ccc(CN3CCN(CC(=O)N(C)C)CC3)cc2OCC)cc1 in the list: Sa helicase inh = -11.0; MgrA-DNA mod = .

3 entries already listed, ordered by molar mass, high to low.
Screens in order: Sa helicase inh, MgrA-DNA mod
#47 CCOC(=O)N1CCN(C(c2ccccn2)c2cc(Cl)c3cccnc3c2O)CC1 (stereo not drawn)
  -3.0, .
#41 CCOC(=O)c1cc(-c2ccc(C=C3C(=O)N(C)C(=O)N(C)C3=O)o2)ccc1Cl
  ., 1.0
#33 CCOC(=O)C(C(=O)Nc1ccccc1)C1CCCCC1 (stereo not drawn)
  ., 1.0

Additional records
Screens in order: Sa helicase inh, MgrA-DNA mod
#61 CCOC(=O)c1cc(=O)c2cc(I)ccc2o1
  ., -0.1
#62 Cc1nn(-c2ccccc2)c(-n2cccc2)c1CN
  6.0, .
#63 CN(Cc1ccccc1)C(=O)CCc1nc2cccnc2n1-c1ccccc1
  17.0, -1.0
#64 CSc1nnc(SC)n1CCNC(=O)c1c(Cl)cccc1Cl
  ., -3.6
#65 O=C(O)c1cccc(NC(=O)c2cccc(S(=O)(=O)N3CCCCC3)c2)c1
  2.0, 0.4
#66 CN1CCC(N(C)C(=O)CNC(=O)c2ccc(Oc3ccccc3)cc2)CC1
  9.0, .
#67 CC1=NN(C(=O)CSc2nc3ccccc3s2)C(C)(O)C1 (stereo not drawn)
  2.0, 0.5
#68 O=C(NCCSc1nnnn1-c1ccccc1)C(c1ccccc1)c1ccccc1
  -4.0, 0.7
#69 CCN(CC)c1ccc(NC(=O)COc2ccccc2OC)cc1
  -15.0, .
#70 Cc1cccc(-n2cc(-c3ccccc3)c3c(=O)[nH]cnc32)c1
  -19.0, .
#71 Brc1cccc(OCc2nnc3n2CCC3)c1
  -4.0, .
#72 N#C/C(=C/c1ccc(N2CCCCC2)o1)C(=O)NCCc1c[nH]c2ccccc12
  -93.0, 1.5
#73 O=C(CN1C(=O)/C(=C/c2ccccc2)SC1=S)Nc1cccnc1
  ., 0.2
#74 COC(=O)c1cc2oc(C)cc2n1CC(=O)Cc1ccc(OC)cc1OC
  4.0, -1.1
#75 N#CCCn1c(Sc2ncnc3sc4c(c23)CCCC4)nc2ccccc21
  -15.0, .
#76 C=CCn1c2ccccc2c2nn3cnnc3nc21
  ., 1.1
#77 O=C(O)CCc1oc2cc(O)ccc2c(=O)c1-c1nc2ccccc2[nH]1
  6.0, 1.9
#78 O=C(O)c1cnc2sccn2c1=O
  -14.0, .
#79 CCSc1nc2cc(S(=O)(=O)N(CC)CC)ccc2n1CC
  8.0, .
#80 O=C(COc1ccccc1)OC(C(=O)c1ccccc1)c1ccccc1 (stereo not drawn)
  6.0, -1.6
#81 COc1ccccc1-c1nnc(-c2ccccc2O)o1
  3.0, -0.5
#82 O=C(Nc1ccccc1)Nc1cccc2ccccc12
  8.0, -1.2
#83 c1cnc(N2CCN(Cc3ccc4c(c3)OCO4)CC2)nc1
  ., 0.7
#84 c1ccc(-c2n[nH]c3ccccc23)cc1
  16.0, 3.7
#85 Cc1ccccc1Nc1n[nH]c(=S)s1
  7.0, .
#86 Cc1cccc(N(C)C(=O)c2cccc3c2SCCC3=O)c1
  2.0, 0.7
#87 c1cnc2c(Oc3ncnc4c3oc3ccccc34)cccc2c1
  -4.0, .
#88 O=C(CCN1C(=O)c2ccccc2S1(=O)=O)Nc1nc(-c2ccccc2)cs1
  -5.0, -2.5
#89 O=C(O)CSCc1nc2ccccc2[nH]1
  -14.0, .
#90 COC(CNC(=S)Nc1cccc(C(F)(F)F)c1)OC
  -6.0, -1.0

(next part)
no.	Molecule	Sa helicase inh	MgrA-DNA mod
91	Fc1cc(Br)ccc1N=Cc1ccncc1	1.0	2.0
92	COc1ccc2nc3oc(C(=O)Nc4ccc(C(C)C)cc4)cc3cc2c1	18.0	1.4
93	COC(CNC(=O)c1cc2c(s1)CSC2)OC	3.0	6.9
94	O=C1NC(=O)C(=CN2CCC(Cc3ccccc3)CC2)C(=O)N1	-13.0	.
95	Cc1nn(C2CCS(=O)(=O)C2)c(Cl)c1/C=C/C(=O)OCC(=O)c1ccc(Cl)s1 (stereo not drawn)	-7.0	.
96	O=P(c1ccccc1)(c1ccccc1)C(O)c1cccs1 (stereo not drawn)	1.0	1.8
97	CCOc1ccc(Br)cc1S(N)(=O)=O	10.0	-2.2
98	N#CCS(=O)(=O)c1ccccc1	.	0.8
99	N#CC1=C(N)C2=C(N3CCOCC3)CCCC2C1(C#N)C#N (stereo not drawn)	.	4.2
100	Cn1c2ccccc2c2cnn(CC(=O)NCc3ccc4c(c3)OCO4)c(=O)c21	-12.0	1.1
101	COC(CNC(=O)c1ccc2c(c1)N(Cc1cccc(Cl)c1)C(=O)c1ccccc1S2=O)OC (stereo not drawn)	6.0	.
102	CCc1ccc(NC(=O)Nc2ccc3c(c2)N(CC)C(=O)c2ccccc2S3)cc1	1.0	-0.2
103	Cc1cc(SC(C)C(=O)NC(N)=O)nc2ccccc12 (stereo not drawn)	-5.0	.
104	O=C(NCCCc1ccccc1)C1CCN(c2nnc(-n3cccc3)s2)CC1	16.0	.
105	COc1ccc(C2C(C(=O)Nc3ccc(C)c(F)c3)CC(=O)N2c2ccc(OC)cc2)cc1 (stereo not drawn)	0.0	1.6
106	CC(C)c1ccc(S(=O)(=O)NC2CC(C)(C)NC(C)(C)C2)cc1	9.0	-2.5
107	COc1ccc(C(C#N)C(C)C)cc1OC (stereo not drawn)	.	-0.2
108	Oc1ccccc1/C=N/N1CCCCC1	-12.0	.
109	CN(C)C(=S)SCc1nc(-c2ccc(Cl)cc2)no1	.	-1.1
110	COC(=O)N/N=C/C1=CCC2CC1C2(C)C (stereo not drawn)	0.0	.
111	O=C(O)c1cn2c3c(cccc3c1=O)CC2	25.0	.
112	CCCc1c(O)ccc2c1OC(C)(CCC(=O)OC)CC2=O (stereo not drawn)	.	2.1
113	CC(=O)Nc1cccc(-c2cc(-c3ccc(Cl)cc3Cl)no2)c1	.	-1.8
114	CCOC(=O)C(C)Oc1ccc2c3c(c(=O)oc2c1)CCC3 (stereo not drawn)	26.0	.
115	Cn1ccnc1SCC(=O)Nc1ccccc1	-5.0	1.1
116	CN(C)/C=C/c1nc(C(F)(F)F)c(C#N)s1	.	-3.0
117	CC1(C)CC(=O)C/C(=N/Nc2nc3ccccc3o2)C1	-10.0	.
118	Fc1ccc(-c2nnn3c2nc(N2CCCC2)c2ccccc23)cc1	28.0	.
119	COc1ccc(C(N)CC(=O)OC(C)C)cc1 (stereo not drawn)	6.0	.
120	COc1ccc2[nH]c(=O)c(CN(Cc3cccs3)C(c3nnnn3C(C)(C)C)C(C)C)cc2c1 (stereo not drawn)	11.0	4.3

Looked up above:
compound 114 in Sa helicase inh reads 26.0
compound 119 in Sa helicase inh reads 6.0

Next records
no.	Molecule	Sa helicase inh	MgrA-DNA mod
121	CCCc1cc(=O)[nH]c(SCC(=O)N2CCN(c3ccccc3)CC2)n1	.	-2.7
122	COc1c(OC)c2occc2c2oc(=O)ccc12	.	1.0
123	O=C(O)C1C2C=CC3(CN(C/C=C/c4ccccc4)C(=O)C13)O2 (stereo not drawn)	-8.0	2.2
124	Brc1cc(C2CCCCC2)cc(Br)c1-n1cccc1	.	0.4
125	c1ccc(-c2cc(N3CCOCC3)c3ccccc3n2)cc1	.	0.4
126	COc1ccc(O)c(C(=O)c2cnn3c(N)nnc3c2)c1	2.0	.

Screening results from PubChem BioAssay.
